nsP2pro inh: blocks chikungunya virus nsP2 protease peptide cleavage | Potency, µM (top dose mostly 24.9 µM), inactives show top-dose activity change, negative = inhibition, most hits filed as inhibitors | AID 1964107 | FRET peptide cleavage, nsP2pro, fluorescence 1 h | Q8JUX6 | 1.1% of 31,000 active; active means well fitted inhibition curve with a large enough effect; inconclusive means small, poorly fitted or top-dose-only effect; inactive means no such curve, though single readings can be large or run the other way; further: nearly all actives have a fitted effect of over 60% in size; a reference inhibitor and vehicle were the controls
Target sequence (Q8JUX6 whole entry, looked up): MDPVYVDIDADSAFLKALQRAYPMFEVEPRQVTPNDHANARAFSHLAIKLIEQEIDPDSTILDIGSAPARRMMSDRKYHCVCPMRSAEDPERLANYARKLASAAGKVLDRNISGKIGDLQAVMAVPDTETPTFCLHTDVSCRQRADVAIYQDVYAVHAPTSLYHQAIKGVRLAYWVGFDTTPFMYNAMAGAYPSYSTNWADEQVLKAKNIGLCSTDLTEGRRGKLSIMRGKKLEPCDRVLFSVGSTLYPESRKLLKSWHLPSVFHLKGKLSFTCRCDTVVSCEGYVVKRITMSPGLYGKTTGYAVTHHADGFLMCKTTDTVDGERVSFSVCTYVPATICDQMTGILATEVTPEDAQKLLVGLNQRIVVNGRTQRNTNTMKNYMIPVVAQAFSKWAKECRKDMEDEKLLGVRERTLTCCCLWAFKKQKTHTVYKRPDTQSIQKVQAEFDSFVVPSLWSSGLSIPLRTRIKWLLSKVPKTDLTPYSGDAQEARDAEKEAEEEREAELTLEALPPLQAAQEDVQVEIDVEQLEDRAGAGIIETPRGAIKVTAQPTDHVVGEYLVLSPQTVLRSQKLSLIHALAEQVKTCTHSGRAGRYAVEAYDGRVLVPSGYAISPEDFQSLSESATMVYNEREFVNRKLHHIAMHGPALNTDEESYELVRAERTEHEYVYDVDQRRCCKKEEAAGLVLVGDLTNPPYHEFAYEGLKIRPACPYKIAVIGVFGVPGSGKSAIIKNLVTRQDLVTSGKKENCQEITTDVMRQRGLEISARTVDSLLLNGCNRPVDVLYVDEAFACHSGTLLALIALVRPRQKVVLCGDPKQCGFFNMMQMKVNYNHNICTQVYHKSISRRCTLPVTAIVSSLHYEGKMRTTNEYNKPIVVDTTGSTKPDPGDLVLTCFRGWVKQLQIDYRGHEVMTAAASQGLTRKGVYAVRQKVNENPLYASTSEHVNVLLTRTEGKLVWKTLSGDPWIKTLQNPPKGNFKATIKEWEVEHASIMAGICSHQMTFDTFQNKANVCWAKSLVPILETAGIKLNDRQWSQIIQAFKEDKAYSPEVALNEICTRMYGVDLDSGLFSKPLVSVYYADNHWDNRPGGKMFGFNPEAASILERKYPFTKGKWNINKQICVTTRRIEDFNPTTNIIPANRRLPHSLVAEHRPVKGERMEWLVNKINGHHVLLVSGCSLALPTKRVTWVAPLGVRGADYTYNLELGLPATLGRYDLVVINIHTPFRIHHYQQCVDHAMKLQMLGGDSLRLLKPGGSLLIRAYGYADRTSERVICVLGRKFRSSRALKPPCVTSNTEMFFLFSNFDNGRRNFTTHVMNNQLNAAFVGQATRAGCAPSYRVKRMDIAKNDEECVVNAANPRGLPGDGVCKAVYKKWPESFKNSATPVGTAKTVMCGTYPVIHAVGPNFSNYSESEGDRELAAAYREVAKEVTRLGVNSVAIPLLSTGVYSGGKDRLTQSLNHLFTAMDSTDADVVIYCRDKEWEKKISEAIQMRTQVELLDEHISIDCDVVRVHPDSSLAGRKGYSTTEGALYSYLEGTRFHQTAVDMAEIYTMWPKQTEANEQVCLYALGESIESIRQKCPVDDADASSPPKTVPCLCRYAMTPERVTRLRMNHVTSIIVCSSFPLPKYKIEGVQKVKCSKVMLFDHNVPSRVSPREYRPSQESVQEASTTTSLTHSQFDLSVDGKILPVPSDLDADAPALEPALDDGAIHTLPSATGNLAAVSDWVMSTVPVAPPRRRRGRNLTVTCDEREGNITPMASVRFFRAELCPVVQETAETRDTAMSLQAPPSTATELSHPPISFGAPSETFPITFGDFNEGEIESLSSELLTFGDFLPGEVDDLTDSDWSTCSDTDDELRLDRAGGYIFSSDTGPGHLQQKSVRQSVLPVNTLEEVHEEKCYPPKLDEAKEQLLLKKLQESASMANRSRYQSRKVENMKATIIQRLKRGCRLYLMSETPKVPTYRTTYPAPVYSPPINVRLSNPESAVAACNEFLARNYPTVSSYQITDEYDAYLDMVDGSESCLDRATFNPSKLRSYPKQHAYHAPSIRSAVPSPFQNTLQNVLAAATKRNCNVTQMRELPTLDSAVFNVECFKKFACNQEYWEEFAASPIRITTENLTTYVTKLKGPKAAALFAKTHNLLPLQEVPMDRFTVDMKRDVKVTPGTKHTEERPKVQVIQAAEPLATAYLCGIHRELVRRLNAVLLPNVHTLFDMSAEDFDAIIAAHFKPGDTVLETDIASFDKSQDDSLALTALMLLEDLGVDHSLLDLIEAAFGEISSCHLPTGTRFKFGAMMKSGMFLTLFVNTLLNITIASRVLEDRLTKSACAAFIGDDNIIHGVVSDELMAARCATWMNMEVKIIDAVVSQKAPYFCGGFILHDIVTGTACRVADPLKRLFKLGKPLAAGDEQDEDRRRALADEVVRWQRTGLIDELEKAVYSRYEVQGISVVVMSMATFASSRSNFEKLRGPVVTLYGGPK
* hit, by the source's call; i = inactive; u = inconclusive; & = joins results of further samples; [ ] = another dose, or the depositor's remark. On the % scale 0 is the no-effect control and ±100 the full control effect; potency means the concentration at half of the fitted maximal effect. The list is partial; the hit share may differ from the screen's.

SMILES	nsP2pro inh
CC1OC2O[C@H]3[C@@H](OCC(O)[C@H]3O)OC(=O)C34CCC(C)(C)CC3C3=CCC5C6(C)CC(O)C(OC7OC(CO)C(O)C(O)C7O[C@@H]7OC[C@H](OC(=O)CC(C)(O)CC(=O)OC1C(OC1OCC(O)C(O)C1O)C2O)[C@@H](O)[C@H]7O)C(C)(CO)C6CCC5(C)C3(C)CC4 (some centres not stated)	10%[10 µM]
C[C@@H]1CC[C@]2(C)C3(C)CC[C@@]2(OC3=O)[C@@]12C[C@H](c1ccoc1)OC2=O	2.4µM*
O=C(O)Cc1cccn1-c1ccc(Cl)cc1	4.5µM*
O=C(CNC(=O)c1cccc(Cl)c1)OC(C(=O)Nc1cc(C(F)(F)F)ccc1Cl)c1ccccc1 (configuration not stated)	-3%
C[C@]1(CO)[C@H]2Cc3sc(NC(=O)C4CCC4)nc3[C@@H](CC(=O)N3CCCCC3)[C@]2(C)CC[C@H]1O	-8%
CN(C/C=C/C#CC(C)(C)C)Cc1cccc2ccccc12	25%
Cc1cccc(-n2c3nc(=O)n(C)c(=O)c-3cc3c(C)nn(-c4ccccc4)c32)c1C	-17%
COc1ccc(C)cc1Nc1nc2c(S(=O)(=O)c3cc(C)ccc3C)nnn2c2ccsc12	-27%
Nc1cc(-c2nc(Nc3ccc(F)c(F)c3)c3ccccc3n2)ccn1	-14%
Cc1cc(N[S+](=O)([O-])c2ccc(NC(=O)Cc3ccc4c(c3)CCO4)cc2)no1	4%
COc1ccc(OC)c(NC(=O)CSC2=Nc3ccccc3C3=NC(CC(=O)NCCc4ccccc4)C(=O)N23)c1 (configuration not stated)	-8%
Cc1cc(C)n(Cc2ccc(C(=O)N3CC4CC(C3)[C@H]3CCCC(=O)N3C4)o2)n1 (some centres not stated)	-1%
Cc1cnc(C(=O)N2CCCC2c2nc(CCOCC3CCCC3)no2)cn1 (configuration not stated)	-9%
CN(C)CCOCC1(C)COc2ccc(C(=O)Nc3ccc4[nH]ccc4c3)cc2N1 (configuration not stated)	i
COc1ccc(-c2cc(C(F)(F)F)nc(SCCC(=O)Nc3cc(C)ccc3O)n2)cc1	-13%
O=c1c2ccccc2nc2sc(Nc3cccc(N4CCNCC4)c3)nn12	i
COc1cc(C(=O)Nc2cc(C)ccc2OCc2cc(=O)n3c(C)csc3n2)cc(OC)c1OC	-29%
COc1ccc(NC(=O)CCN2CCN(CCO)CC2)c(OC)c1	-18%
O=C(CSc1nc2ccccc2nc1Cc1ccccc1)N1CCc2ccccc21	-18%
Cc1ccccc1-n1c(Cn2cnc3c(N)ncnc32)nc2cccc(C)c2c1=O	15%
CC(c1c[nH]c2ccccc12)C(O)C(=O)O (configuration not stated)	-6%
CC(=O)OC12CC(C)C(OC(=O)c3ccccc3)C1/C=C(/C)C(OC(=O)c1ccccc1)CC(=O)C(C)(C)/C=C/C(C)C2=O (configuration not stated)	u
Cc1c(N(C)CS(=O)(=O)O)c(=O)n(-c2ccccc2)n1C	-3%
Cc1ccc(/C=C2\C(=O)C3(C)CCC2C3(C)C)cc1 (configuration not stated)	16%
CNC(=O)c1ccccc1Sc1ccc2c(/C=C/c3ccccn3)n[nH]c2c1	28%&9%
CCCCCCCCCC(=O)N[C@@H](Cc1c[nH]c2ccccc12)C(=O)N[C@H](CC(N)=O)C(=O)N[C@@H](CC(=O)O)C(=O)N[C@@H]1C(=O)NCC(=O)N[C@@H](CCCN)C(=O)N[C@@H](CC(=O)O)C(=O)N[C@H](C)C(=O)N[C@@H](CC(=O)O)C(=O)NCC(=O)N[C@H](CO)C(=O)N[C@@H]([C@@H](C)CC(=O)O)C(=O)N[C@@H](CC(=O)c2ccccc2N)C(=O)O[C@@H]1C	-13%&3%[10 µM]
CCN(C(=O)c1cc2cc(Br)cc(OC)c2oc1=O)c1ccccc1	-20%
O=C(c1ccc(F)c(Cl)c1)N1C[C@@H](CO)[C@H](c2ccccn2)C1	-1%
Cc1ncc(C[n+]2csc(CCO)c2C)c(N)n1	-13%&-10%
N#Cc1ccccc1-c1cc2c(ccn2Cc2ccncc2)c(N2CCOCC2)n1	-8%[39.2 µM]
COc1ccc(C(C)NC(=O)c2noc(-c3ccc(F)cc3)n2)cc1OC (configuration not stated)	i
Cc1ccccc1CN1CCC(CNc2ncnc3onc(-c4ccc(F)cc4)c23)CC1	-24%
CC(=O)C1CCC(=O)N1Cc1ccccc1 (configuration not stated)	-6%
CCOc1ccc(N(CC)C(=O)c2cc3c(s2)-c2ccc(Cl)cc2SC3)cc1	-20%
NC(N)=NCCC[C@@H](N)C(=O)N[C@@H](CCCN=C(N)N)C(=O)N1CCC[C@H]1C(=O)N1C[C@H](O)C[C@H]1C(=O)NCC(=O)N[C@@H](Cc1cccs1)C(=O)N[C@@H](CO)C(=O)N1Cc2ccccc2C[C@@H]1C(=O)N1[C@H](C(=O)N[C@@H](CCCN=C(N)N)C(=O)O)C[C@@H]2CCCC[C@@H]21	-1%[10 µM]
COc1ccccc1NC(=O)CSc1nnc2c(n1)[nH]c1ccccc12	-22%
CC1C/C=C/C(O)C(O)CC/C=C/c2cc(O)cc(O)c2C(=O)O1 (configuration not stated)	-12%
Cc1cccc(Cn2cccc(C(=O)Nc3ccc4c(c3)OCCO4)c2=O)c1	-13%
CC12CC34C=CC(=O)C(C)(CCC(=O)O)C3C(CC1C4)O2 (configuration not stated)	-6%
Clc1ccc(CCCOCCCN2CCCCC2)cc1	-4%

Structural class: the compounds so far with a Cl atom
SMILES	nsP2pro inh
O=C(O)Cc1cccn1-c1ccc(Cl)cc1	4.5µM*
O=C(CNC(=O)c1cccc(Cl)c1)OC(C(=O)Nc1cc(C(F)(F)F)ccc1Cl)c1ccccc1 (configuration not stated)	-3%
O=C(c1ccc(F)c(Cl)c1)N1C[C@@H](CO)[C@H](c2ccccn2)C1	-1%
CCOc1ccc(N(CC)C(=O)c2cc3c(s2)-c2ccc(Cl)cc2SC3)cc1	-20%
Clc1ccc(CCCOCCCN2CCCCC2)cc1	-4%

By substructure: the compounds so far with two or more sulfur atoms.
SMILES	nsP2pro inh
COc1ccc(C)cc1Nc1nc2c(S(=O)(=O)c3cc(C)ccc3C)nnn2c2ccsc12	-27%
CCOc1ccc(N(CC)C(=O)c2cc3c(s2)-c2ccc(Cl)cc2SC3)cc1	-20%

Following part
SMILES	nsP2pro inh
c1cc(CN(CCN2CCCCC2)CC2CCCN(C3CCCC3)C2)c2nonc2c1 (configuration not stated)	i
Cc1cc(=O)oc2c(C=O)c(O)ccc12	-2%
O=C(Nc1ccc(F)cc1)N[C@H]1[C@H](O)[C@@H](N2CCCC2)[C@@H]2OC[C@H]1O2	-6%[39.2 µM]
COCCCNC(=O)CSC1=Nc2ccccc2C2=NC(CCC(=O)NCc3ccccc3OC)C(=O)N12 (configuration not stated)	-10%
COc1ccc(CN2C(=O)c3ccccc3NC2c2ccc(OC)c(COc3c(C)cc(NC(C)=O)cc3C)c2)cc1 (configuration not stated)	-3%
O=C(CSCC1CC1)N1CCC2(CCC(=O)N(CCCn3ccnc3)C2)CC1	5%
Cc1nn(-c2ccccc2)c2c1cc1c(=O)[nH]c(=O)nc-1n2-c1cccc(Cl)c1	-25%
c1ccc(C2Nc3cccc4cccc(c34)N2)cc1	i
O=C(/C=C/c1ccc(Cl)cc1)Nc1cccc([S+](=O)([O-])Nc2ccccc2F)c1	1%&2%
O=C(Cc1ccc(-c2ccccc2)cc1)NC1CCC1	-8%
Nc1cccc(S(=O)(=O)N2CCCN(S(=O)(=O)c3ccc4c(c3)OCCO4)CC2)c1	i
CC(=O)N1CCN(c2ccc(N)cc2)CC1	4%
Fc1ccc2c(CCNCc3cccc(OCC(F)(F)C(F)F)c3)c[nH]c2c1	13%
O=C(NC1CCCC1)c1ccc(OC2CCN(CCCC(F)(F)F)CC2)c(Cl)c1	2%
CC1OC(OC2C(C)OC(OC3C(OC(=O)C45CCC(C)(C)CC4C4=CCC6C7(C)CCC(OC8OC(C(=O)O)C(O)C(O)C8OC8OC(CO)C(O)C(OC9OC(C)C(O)C(O)C9O)C8O)C(C)(CO)C7CCC6(C)C4(C)CC5)OC(CO)C(O)C3O)C(O)C2O)C(O)C(O)C1O (configuration not stated)	1%[5.1 µM]
C[Si](C)(C)O[Si](C)(C)O[Si](C)(C)C	-8%[39.2 µM]
CCN(CC)C(=O)C(NC(=O)CC(C)C)C1CCN(C(=O)CCc2ccccc2)CC1 (configuration not stated)	-10%
CN(C)S(=O)(=O)N1CCCC(c2nc(-c3ccccc3)no2)CCNC(=O)CC1 (configuration not stated)	-8%
COCCN1CC(CO)C2(CCN(C(=O)Cc3c(C)noc3C)CC2)C1 (configuration not stated)	0%
CS(=O)(=O)N1C[C@@H]2OCC(=O)N(Cc3ccncc3)[C@@H]2C1	3%[39.2 µM]
O=C(Cc1ccsc1)Nc1ccc2c(N3CCCC3)ncnc2c1	i
CCCCN1[C@@H]2CC[C@H]1CC(OC(c1ccc(F)cc1)c1ccc(F)cc1)C2 (some centres not stated)	28%
Nc1c(C(=O)Nc2ccc(Cl)cc2F)sc2nc(-c3cccs3)ccc12	-28%
Cc1ccc2nc3sc(C(=O)N4CCC(C(N)=O)CC4)cc3cc2c1	-3%
Nc1ccncc1N	-7%[39.2 µM]
N#Cc1nc(Nc2ccc3ccccc3c2)nc(NC2CCCC2)n1	5%
CCOC(=O)c1c(NC(=O)COc2cccc(C(F)(F)F)c2)sc2c1CCC(C)C2 (configuration not stated)	-3%
Cc1cc(Br)ccc1NC(=O)c1coc(=O)c2ccccc12	0%
Cc1noc(C)c1C(=O)N1CC(N2C(=O)c3c(c(C)nn3-c3ccccc3)C2C)C1 (configuration not stated)	-8%
C/C=C/C=C/[C@@H]1O[C@](O)([C@H](CC)C(=O)NC/C=C/C=C(\C)[C@@H](OC)[C@@H](C)[C@@H]2O[C@H](/C=C/C=C/C=C(\C)C(=O)c3c(O)ccn(C)c3=O)[C@H](O)[C@@H]2O)[C@H](O)[C@H](O)C1(C)C	-14%[5.1 µM]
O=C1CCCN1CCCN1C(=O)[C@@H]2C[C@@H](O)CN2C2(CN(C3CCC(F)(F)CC3)C2)C1=O	-7%
O=C(O)c1ccc(O)c2ncccc12	i
O=C(O)/C=C/c1cc2c(cc1O[C@@H]1O[C@H](CO)[C@@H](O)[C@H](O)[C@H]1O)OCO2	u
Cc1cccc(NC(=O)CSc2nc3ccc(NC(=O)COc4ccc(Cl)cc4)cc3s2)c1	-11%
CCCNC(=O)N1CCCC(c2nc(CCOc3ccc(F)cc3)no2)C1 (configuration not stated)	i
CC(C)(C)OC(=O)N1CCC(c2c(C(=O)NCCN3CCc4ccccc4C3)cnn2-c2ccc(F)cc2F)CC1	-3%
Cc1nc(CNc2ncnc3ccc(-c4ccoc4C)cc23)cs1	-11%
O=C1NC2(CN([S+](=O)([O-])c3ccsc3)C2)Oc2ccccc21	-3%[39.2 µM]
O=C(c1c(F)cccc1F)N1CCN(S(=O)(=O)c2ccc3c(c2)OCCO3)CC1	-3%
O=C(Cc1cc2c(cc1Cl)OCCO2)N[C@@H]1COCC[C@@H]1OCC1CC1	i
COc1cc2c(cc1O)NC(=O)CC2c1cn[nH]c1-c1cc(C)ccc1C (configuration not stated)	-16%
Cc1ccccc1-c1nccc2c(=O)cc(C3=CCOCC3)oc12	-18%[39.2 µM]
COc1ccccc1N1CCN(CC(C(=O)NC(C)(C)C)c2ccccc2)CC1 (configuration not stated)	-18%
O=C(c1ccccc1Cl)N1CCCCC1CCN1CCCCC1 (configuration not stated)	-15%
CCOC(=O)c1cc(S(=O)(=O)NCc2cccc(Cl)c2)[nH]n1	u
N#Cc1nc(Nc2cccc(F)c2)nc(NC2CCCC2)n1	i
O=C(NC1CCCCC1)OC[C@H]1C[C@@H]2CCN1C[C@@H]2c1cc(C2CCCC2)nc(-c2ccncc2)n1	7.9µM*
CCOC(=O)c1ccc(NC(=O)Cn2nc(C)c3nn(-c4ccc(Cl)cc4)c(C)c3c2=O)cc1	-14%
CC(C)C1NC(=O)C2CCCN2C1=O (configuration not stated)	u
CCc1nnc(NC(=O)CSc2nccn2Cc2ccccc2)s1	-17%
COc1ccc(Cn2cc(C(C(=O)O)N(C)Cc3cccnc3)cn2)cc1 (configuration not stated)	-4%
CC(=O)O[C@@H]1[C@H](O[C@@H]2O[C@H](CO)[C@@H](O)[C@H](O)[C@H]2O)[C@@H](O[C@@H]2O[C@@H](C)[C@H](O)[C@@H](O[C@@H]3O[C@H](CO)[C@@H](O)[C@H](O)[C@H]3O)[C@H]2O)[C@H](OC(=O)[C@]23CCC(C)(C)C[C@H]2C2=CCC4[C@@]5(C)C[C@H](O)[C@H](O[C@@H]6O[C@H](C(=O)O)[C@@H](O)[C@H](O)[C@H]6O)[C@@](C)(C(=O)O)C5CC[C@@]4(C)[C@]2(C)CC3)O[C@@H]1C (some centres not stated)	-11%[5.1 µM]
CCOC(=O)c1scc(-c2ccccc2)c1S(=O)(=O)N1CCN(c2ccccc2OC)CC1	-17%
CCC(C)n1c(=O)c2sccc2n2c(CCCC(=O)NCc3ccccc3Cl)nnc12 (configuration not stated)	-18%
C=CC(=O)Nc1cccc(Oc2nc(Nc3ccc(N4CCN(C)CC4)cc3)ncc2Cl)c1	87%[activator]
CN(C)CCC(c1ccccc1)c1ccccn1 (configuration not stated)	-3%&1%
O=c1c2ccccc2n2c(-c3ccc(F)c(F)c3)nnc2n1CCc1ccccc1	-33%
O=C(Nc1cccc(Cl)c1)c1cnc2sc(N3CCCC3)nn2c1=O	-16%
CCN(C(=O)CSc1nc2ccccc2n1Cc1cc(C)ccc1C)c1ccccc1	-19%
COc1ccccc1NC(=O)Nc1ccc2ccccc2c1	44%[activator]
COc1ccc(OCCn2c(C)nc3cc(C)c(C)cc32)cc1	-7%
CC(=O)Nc1sc2c(c1-c1cccc(F)c1)CCNC2	u

Random excerpt: two records from the list, in no set order.
SMILES	nsP2pro inh
Cc1ccccc1-c1nccc2c(=O)cc(C3=CCOCC3)oc12	-18%[39.2 µM]
CC(=O)Nc1sc2c(c1-c1cccc(F)c1)CCNC2	u
